SARS PLpro yeast: inhibitors of SARS-CoV papain-like protease in yeast; S. cerevisiae expressing SARS-CoV PLpro, growth rescue; control for the full effect not named in the record; Potency, µM (doses to about 32.9 µM), without a hit: at the top dose activity, positive = growth rescue; actives 0.19% (n = 330,000); active means well fitted rising curve with a large enough effect; inconclusive means small, poorly fitted or top-dose-only effect; inactive means no such curve, though single readings can be large or run the other way; note: 0% is about no effect; nearly all actives have a fitted effect of over 55% in size; growth read by luminescence after 48 h
StopGo reporter: lowers the luciferase signal of an FMDV 2A StopGo reporter. Potency, µM (top dose mostly 57.9 µM), for inactives: top-dose signal change, negative = less light. AID 1159524. human cells with a luciferase reporter of 2A StopGo recoding; control for the full effect not named in the record. actives 1.2% (n = 410,000); active = well fitted falling curve with a large enough effect; inconclusive = small, poorly fitted or top-dose-only effect; inactive = no such curve, though single readings can be large or run the other way; tested in HEK293T cells; note: % is set by controls: 0 for no effect and ±100 for the full control effect; nearly all actives have a fitted effect of over 45% in size; luciferase light after 4 h
RE007 growth inh: less growth of the S. pombe RE007 Vpr strain. S. pombe RE007 Vpr strain, BacTiter-Glo ATP luminescence, 24 h; control for the full effect not named in the record. Potency, µM (highest dose often 92.2 µM), for the others: at the highest dose activity change, negative = less growth. actives 0.21% (n = 360,000). AID 651644; active = well fitted falling curve with a large enough effect; inconclusive = small, poorly fitted or top-dose-only effect; inactive = no such curve, though single readings can be large or run the other way;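 note: % is set by controls: 0 for no effect and ±100 for the full control effect; nearly all actives have a fitted effect of over 50% in size; the assay follows cell death caused by Vpr and the record does not say whether a fall means rescue or toxicity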
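Fission yeast strain RE007, carrying one chromosomally integrated HIV-1 vpr copy, was seeded at OD 0.01 in PMG+AL medium with 23 nL pinned compound. After 24 h at 30 °C and 99% humidity, viability was read by BacTiter-Glo luminescence.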
NS1 function inh: inhibitors of influenza NS1 protein function; S. cerevisiae slowed by influenza A NS1, growth recovery by OD600; Potency, µM (highest dose often 46.1 µM), inactives show top-dose activity, positive = more growth; actives 0.4% (n = 270,000); active means well fitted rising curve with a large enough effect; inconclusive means small, poorly fitted or top-dose-only effect; inactive means no such curve, though single readings can be large or run the other way; note: nearly all actives have a fitted effect of over 50% in size
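Read-out: OD600 growth recovery of NS1-expressing budding yeast. Cells grown overnight at 30C in -URA glucose medium, washed, resuspended and diluted 1:100 in 2% galactose assay medium, pH 6.0. Same strain lacking NS1 served as positive control.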
Cruzain inh Det: inhibitors of Trypanosoma cruzi cruzain with detergent; purified cruzain, Z-FR-AMC fluorescence, 0.01% Triton; P25779; actives 0.43% (n = 200,000); AID 1478; Potency, µM, for inactives: max response, negative = inhibition, most hits filed as inhibitors;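 note: plate controls were neutral wells for no effect and buffer without enzyme for full effect; nearly all actives have a fitted effect of over 40% in size; top concentration of the series not given in the record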
Target sequence (P25779 123-467 limits assumed): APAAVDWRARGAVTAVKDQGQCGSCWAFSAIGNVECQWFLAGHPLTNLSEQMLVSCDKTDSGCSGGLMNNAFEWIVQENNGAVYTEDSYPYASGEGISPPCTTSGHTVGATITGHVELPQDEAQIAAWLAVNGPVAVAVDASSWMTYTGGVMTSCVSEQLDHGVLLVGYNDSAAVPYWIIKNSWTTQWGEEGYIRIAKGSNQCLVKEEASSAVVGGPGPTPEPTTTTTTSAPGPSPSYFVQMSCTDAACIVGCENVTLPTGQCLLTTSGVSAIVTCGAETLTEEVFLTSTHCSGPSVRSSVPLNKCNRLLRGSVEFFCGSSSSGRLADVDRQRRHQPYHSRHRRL
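Cysteine protease activity tested under reducing, mildly acidic conditions (100 mM sodium acetate pH 5.5, 5 mM DTT) plus 0.01% Triton X-100. Cruzain 1.5 nM; substrate Z-FR-AMC 2 uM; 15 min compound preincubation at room temperature.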
LASV entry inh: blocks Lassa virus binding to or entry into cells. Lassa virus pseudotype entry inhibition, cell reporter; control for the full effect not named in the record. Potency, µM (titrated, usually from 37.9 µM), for the others: at the highest dose activity change, negative = inhibition, usual class: inhibitors. actives 1.2% (n = 300,000). AID 540256; active means well fitted inhibition curve with a large enough effect; inconclusive means small, poorly fitted or top-dose-only effect, or effect the other way; inactive means flat fitted curve, though single readings scatter; tested in HEK293 cells; note: % is set by controls: 0 for no effect and ±100 for the full control effect; nearly all actives have a fitted effect of over 50% in size; luciferase read-out
MARV entry inh: Marburg virus entry inhibition; Marburg virus pseudotyped entry inhibition, cell reporter; control for the full effect not named in the record; about a third of the inactives were read at about 46 µM; Potency, µM (doses to about 37.8 µM), for inactives: at the highest dose activity change, negative = inhibition, actives largely listed as inhibitors; actives 1.8% (n = 300,000); active = well fitted inhibition curve with a large enough effect; inconclusive = small, poorly fitted or top-dose-only effect, or effect the other way; inactive = flat fitted curve, though single readings scatter; tested in HEK293 cells; about a fifth of its hits are not listed in these tables; note: % is set by controls: 0 for no effect and ±100 for the full control effect; luciferase read-out
Cruzain inh noDet: cruzain (T. cruzi) inhibition without detergent; Potency, µM, without a hit: max response, negative = inhibition, most hits filed as inhibitors; purified cruzain, Z-FR-AMC fluorescence, no detergent; actives 2.3% (n = 200,000);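 note: plate controls were enzyme without inhibitor for no effect and buffer without enzyme for full effect; nearly all actives have a fitted effect of over 40% in size; top concentration of the series not given in the record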
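Detergent-free condition (0.00005% Triton X-100) in acetate buffer pH 5.5 with DTT. 1.5 nM enzyme and compound were pre-mixed 15 min, then 2 uM Z-FR-AMC substrate added; reaction progress from fluorescence change between first and third reads (60 s).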
* hit, by the source's call; ? = inconclusive; . = not tested or not shown; [ ] = dose if it differs, or a comment. Unless noted, calls come from the whole dose curve; as a rule, active = well fitted curve in the direction sought with a large enough effect; inconclusive = small, poorly fitted or top-dose-only effect, or another doubt; inactive = no such curve, though single readings can be large; an effect the other way counts as inactive or inconclusive. Potency is the fitted concentration of half-maximal effect.

Under each structure – SARS PLpro yeast | StopGo reporter | RE007 growth inh | NS1 function inh | Cruzain inh Det | LASV entry inh | MARV entry inh | Cruzain inh noDet
O=C(O)CCCCCNc1nc2ncn(Cc3ccccc3)c2c(=O)[nH]1
→ -0.2% | . | -13.5% | 2.3% | -1.3% | -18.6% | 7.1% | -4.9%
COc1ccc(-n2ncc3c(N4CCN(c5cccc(C)c5)C(C)C4)ncnc32)cc1 (configuration not stated)
→ . | 20µM* | . | . | 3.6% | . | . | 20.6%
Cc1sc(NC(=O)C2c3ccccc3Oc3ccccc32)c(C(=O)OC(C)C)c1C
→ . | -20.5% | . | . | -1.6% | 4.3%[46.1 µM] | 1.2%[46.1 µM] | -24.2%
CN(C)S(=O)(=O)c1ccc(C(=O)Nc2ccc3c(c2)CCC3)cc1
→ -1.3% | 9.6% | 24.9% | -4.7% | . | . | . | .
FC(F)(F)c1nnc2c(Sc3ccccn3)nc3ccccc3n12
→ -0.3% | 6.2% | -4.1% | -11.6% | -3.4% | 1.5% | -19.3% | -2.2%
CCN(CCNC(=O)C1CCCN(S(=O)(=O)c2cnc[nH]2)C1)c1ccccc1 (configuration not stated)
→ -6.1% | -13.0% | -17.4% | -3.2% | 2.1% | . | . | -2.0%
COc1ccc(-c2cc(C(=O)Oc3ccc(C)c(C)c3)c3ccccc3n2)cc1
→ . | 11.2% | . | . | -1.8% | ? | . | 0.3%
Oc1ccccc1/C=N/Nc1ccnc(SCc2ccccc2)n1
→ 6.4% | 2.3% | -9.1% | ? | -6.4% | 1.9% | -1.0% | 20µM*
S=C(NCCCN1CCOCC1)NC1CCCC1
→ -0.2% | 3.1% | 9.8% | . | . | -1.0% | 1.2%[46.1 µM] | .
Cc1ccc(CN2CCSc3ccc(C(=O)NCc4ccc(OC(C)C)cc4)cc32)cc1
→ . | 7.2% | . | . | -5.0% | . | -12.1%[46.1 µM] | 3.2%
Cc1ccc(-n2cc(CNCCc3ncc(C)[nH]3)c(-c3ccc(F)cc3)n2)cc1
→ -1.1% | 5.3% | -18.1% | 0.9% | . | ? | ? | .
COc1ccccc1OC(C)C(=O)Nc1ccccc1C(=O)NCC1CCCO1 (configuration not stated)
→ -11.8% | 7.5% | -9.7% | 0.0% | . | . | ? | .
OC(COc1ccc(Cl)cc1)CN1CCC(Cc2ccccc2)CC1 (configuration not stated)
→ 0.0% | -20.4% | -7.7% | 5.0% | . | . | . | .
O=C(O)c1c2c(nc3ccc(S(=O)(=O)N4CCC(C(=O)NC5CCCC5)CC4)cc13)CCCCC2
→ 16.7% | -14.5% | -1.4% | -0.3% | 3.3% | . | -3.2% | 3.2%
Clc1cccc(-n2ncc3c(N4CCC(Cc5ccccc5)CC4)ncnc32)c1
→ . | -8.9% | . | . | 0.2% | ? | . | 6.2%
CCCCOc1ccc(-c2nnn(CC(=O)Nc3ncc(CC(=O)OCC)s3)n2)cc1
→ -0.6% | 0.0% | -2.2% | -27.5% | -8.1% | -25.8% | ? | ?
O=CNCCc1nc2ccccc2n1CCc1ccccc1
→ 2.4% | -8.3% | 26.2% | -15.1% | . | . | . | .
Cc1ccc(C)c(NC(=O)n2ncc3cc(Cl)ccc32)c1
→ . | 34.3%[activator] | . | . | -3.5% | 5.5%[46.1 µM] | 5.5%[46.1 µM] | -1.4%
Cc1nc(N)[nH]c(=O)c1CCCNc1ccc(CCC2(CCl)OCCO2)cc1
→ . | 58.0%[activator] | -9.2% | . | . | ? | ? | .
CCCCNC(=O)COC(=O)c1cc(S(=O)(=O)N2CCCCCC2)ccc1OC
→ 7.0% | -13.6% | 1.3% | 9.9% | -0.5% | -0.5% | 2.0%[46.1 µM] | 25.6%
Cc1cc(C(=O)NNC(=O)c2cccc(Cl)c2)no1
→ 0.0% | 8.0% | 12.8% | 0.3% | . | . | . | .
Cc1ccc(S(=O)(=O)c2c(N)n(NC(=O)c3ccccc3C)c3nc4ccccc4nc23)cc1
→ -0.9% | -28.7% | 0.9% | 14.8% | -0.9% | -15.8% | ? | ?
O=C(NC1CC(=O)N(c2ccccc2)C1)c1cc2ccccc2o1 (configuration not stated)
→ . | -24.2% | . | . | -1.3% | -0.9%[46.1 µM] | . | -1.2%
COc1ccc(NC(=O)CS(=O)c2ccc(Br)cc2)cc1 (configuration not stated)
→ -0.5% | -5.8% | 6.2% | 2.6% | . | . | . | .
CC(C)(C)NC(=O)c1cccc(NC(=O)CSc2ccc(Cl)cc2)c1
→ 8.7% | 0.0% | . | -11.9% | -4.2% | -16.0% | ? | 6.1%
Cn1c(SCCS(=O)(=O)c2ccc(Cl)cc2)nnc1-c1ccccc1
→ -1.0% | 0.0% | 1.2% | -8.1% | 1.8% | -8.9% | 27.0% | 4.6%
CCOC(=O)c1ccc(NC(=O)CC2S/C(=N/N=C/c3c[nH]c4ccccc34)NC2=O)cc1 (configuration not stated)
→ 2.4% | -9.2% | 2.4% | 6.5% | -1.8% | ? | -2.5% | ?
CC(CCc1ccc(O)cc1)NCCC(c1ccccc1)c1ccccc1 (configuration not stated)
→ 4.5% | 24.8% | 6.6% | -1.4% | . | ? | 7.08µM* | .
CCOc1cc(/C=C2\SC(=Nc3ccccc3)N(c3ccccc3)C2=O)ccc1OCC(=O)O
→ 9.8% | -5.6% | -5.5% | ? | -19.6% | 10.3% | 9.0% | ?
COc1ccc(Oc2nccc(OC)c2C#N)cc1
→ 5.8% | . | -5.5% | 1.0% | -1.6% | -7.9% | 10.8% | 1.2%
CC1=C(C(=O)Nc2ccccc2)C(c2ccncc2)n2nnnc2N1 (configuration not stated)
→ 1.0% | -28.1% | -6.6% | 3.8% | -4.9% | -2.0% | ? | -6.6%
COc1ccc(S(=O)(=O)n2nc(-n3c(C)ccc3C)c3c(F)cccc32)cc1OC
→ -1.6% | -25.6% | 4.9% | 6.6% | . | ? | 8.91µM* | .
Cc1ccc2c(C(=O)N3CCN(c4ccccc4)CC3)cc(-c3cccnc3)nc2c1C
→ -0.3% | ? | 6.6% | 4.6% | . | ? | ? | .
CCc1ccc(-n2nc(C)c3c2NC(=O)CSC3c2ccccc2C)cc1 (configuration not stated)
→ . | ? | . | . | -2.8% | ? | 13.9%[46.1 µM] | -17.5%
COc1ccc(/C=C/c2c(-c3ccc(OC)cc3)sc3ccc(N4CCOCC4)cc23)cc1
→ -7.3% | -21.4% | 13.2% | 21.1% | . | . | . | .
O=C(Oc1ccccc1F)c1nc(SCc2ccccc2F)ncc1Cl
→ . | -13.7% | . | . | -0.6% | -9.5%[46.1 µM] | 8.8%[46.1 µM] | -4.3%
Cc1cc(C)n2cc(CSc3ncn[nH]3)nc2n1
→ 1.7% | -21.5% | 14.5% | . | . | 10.5%[46.1 µM] | -18.1%[46.1 µM] | .
COC(=O)/C(=N/Nc1ccccc1OC)N1CCCc2ccccc21
→ 0.8% | -2.3% | -2.6% | -0.9% | . | . | . | .
NC(=O)COc1ccc2oc(-c3ccccc3)cc(=O)c2c1
→ -2.1% | 40.2%[activator] | -6.9% | . | . | -13.3% | -13.2% | .
Oc1ccccc1-c1nc(NCCN2CCOCC2)c2ccccc2n1
→ -1.0% | ? | 1.2% | -8.6% | -5.5% | 5.5% | 1.5% | -8.0%
COC(=O)c1ccc(CSc2ccc3nnc(-c4ccccc4)n3n2)o1
→ -15.0% | ? | -8.4% | -15.4% | -9.5% | . | . | -10.2%
CCc1nn2c(=O)cc(COC(=O)c3ccc(SC)cc3OC)nc2s1
→ 2.3% | -8.3% | -3.8% | . | . | 4.2% | -1.4% | .
COC(=O)c1sc2ccccc2c1-n1cccc1C(=O)C(=O)Nc1ccc(C)cc1
→ -2.9% | -18.7% | 2.4% | 10.9% | 3.2% | -2.9% | 6.9% | ?
COc1ccc(N(CC(=O)Nc2ccc3c(c2)OCO3)S(=O)(=O)c2ccccc2)cc1OC
→ 0.2% | 16.0% | 6.7% | -0.2% | . | . | . | .
COc1cccc(N(CC(=O)NC2CCCCC2)C(=O)CCC(=O)Nc2nccs2)c1
→ 0.6% | 5.9% | -6.6% | 20.4% | . | -3.2% | -20.4%[46.1 µM] | .
CN(C)CCNC(=O)c1ccc2c(c1)NC(=O)c1ccccc1S2
→ 0.1% | -12.4% | 3.7% | 8.3% | . | . | . | .
O=C(c1ccc(OC2CCN(Cc3ccccn3)CC2)cc1)N1CCCCCC1
→ 0.1% | -6.1% | 2.2% | 1.9% | . | -12.3% | 9.2%[46.1 µM] | .
CCOC(=O)c1c(S(=O)(=O)N2CCCC(C(=O)NCc3ccccc3Cl)C2)c(C)n(C)c1C (configuration not stated)
→ . | 17.4% | . | . | 3.9% | 5.7%[46.1 µM] | . | -12.2%
CC1(C)Cc2c(c(N3CCOCC3)nc3sc(C(=O)Nc4ccccc4)c(N)c23)CO1
→ 1.7% | -6.7% | -1.4% | 3.9% | . | . | . | .
O=S(=O)(Nc1ccc(N=Nc2ccccc2)cc1)c1ccccc1
→ -11.8% | 42.3%[activator] | 6.9% | -9.2% | -10.4% | 2.2% | 11.0% | -14.9%
O=C1CC(C(=O)Nc2ccc(Cl)cc2)n2ncnc2N1 (configuration not stated)
→ 1.1% | -3.6% | -0.9% | . | . | 0.6% | ? | .
COc1ccc(NS(=O)(=O)c2cccc(C(=O)NCC(c3ccco3)N3CCCCC3)c2)cc1 (configuration not stated)
→ 0.2% | -1.9% | 1.8% | . | . | 1.3% | ? | .
Cc1ccc(/C=C/C(=O)Nc2sc(C)c(C)c2C(=O)OC(C)C)o1
→ -3.1% | -8.1% | 14.8% | 24.1% | -6.1% | 10.3% | 1.0% | -1.3%
O=C(Nc1ccc(N2CCOCC2)cc1)c1cccc(S(=O)(=O)N2CCCCCC2)c1
→ 2.0% | -14.9% | -2.7% | 4.3% | . | . | . | .
COc1ccc(C(=O)N(Cc2nc(-c3ccc(C)cc3)no2)C(C)C)cc1OC
→ 15.9% | -10.5% | -0.1% | -42.7% | -5.3% | . | . | ?
CCC1CCCCN1CCCNC(=O)CNC(=O)c1nn(-c2ccc(OC)c(Cl)c2)c(=O)c2ccccc12 (configuration not stated)
→ 1.3% | 41.3%[activator] | -5.4% | -0.1% | . | 5.6%[46.1 µM] | ? | .

Bioassay records as filed in PubChem.
